Compound activity (PubChem)
HCMV UL50-53 inh: inhibitors of HCMV UL50-UL53 interaction, biochemical, HTRF. inhibition, % (concentration not given with the values). HCMV UL50-UL53 nuclear egress complex (human cytomegalovirus). actives 0.15% (n = 190,000). normalized percent inhibition;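 active means both replicates at 50% or more, plus weaker picks with an unusually low signal ratio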;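 further: stock transfer was 100 nL into about 20 µL; 0% = negative control wells and 100% = wells with untagged competitor protein; inactives centre near -12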
GIV-Gai inh: inhibitors of GIV peptide binding to Galpha-i3, primary screen, biochemical, fluorescence polarization, FITC-GIV GBA peptide, rat Galphai3; percent of control (FP), % (test concentration not listed); AID 1224905, 2016; actives 0.42% (n = 210,000); 90 min; active compounds read low; scaled: aluminum fluoride 0%, vehicle 100%; Guanine nucleotide-binding protein G(i) subunit alpha-3 (Rattus norvegicus), P08753;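 active means replicate mean at 85% of control or lower, very high polarization wells dropped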;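 further: lower values mean more displacement of the GIV peptide from Galpha-i3; wells of about 15 µL received 100 nL stock; the first replicate is given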
Target sequence (P08753 whole entry, looked up): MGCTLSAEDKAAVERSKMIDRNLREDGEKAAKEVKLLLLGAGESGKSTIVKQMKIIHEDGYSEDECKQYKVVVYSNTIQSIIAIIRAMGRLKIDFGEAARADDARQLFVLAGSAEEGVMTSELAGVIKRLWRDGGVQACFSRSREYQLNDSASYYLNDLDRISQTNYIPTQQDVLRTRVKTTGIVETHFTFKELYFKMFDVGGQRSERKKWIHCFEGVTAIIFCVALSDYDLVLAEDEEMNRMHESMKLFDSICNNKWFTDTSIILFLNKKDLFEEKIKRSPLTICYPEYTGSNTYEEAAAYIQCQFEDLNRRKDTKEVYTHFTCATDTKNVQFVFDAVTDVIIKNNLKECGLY
Sa growth 42C: S. aureus growth inhibition at 42 and 30 °C, primary screen, LtaS inhibitor project, RN4220, two temperatures; OD600, 20 h, 42 °C; active compounds read low; relative growth, % (no concentration beside the values); actives 0.53% (n = 170,000); AID 720641, 2013;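 active means growth at 42 °C up to 50% and 20 or more points under that at 30 °C, or under 10% at both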;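 further: 300 nL library stock went into each well; scaled to the means of positive and negative controls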
Sa growth 42C second temp: further read-out of Sa growth 42C, marked with its call; relative growth, %; measured here: growth at 30 °C;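 optical density after 20 h as mean of two plates; 100% = untreated growth and lower means inhibition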
The depositor's hits bear a star; · = no result given.

SMILES	HCMV UL50-53 inh	GIV-Gai inh	Sa growth 42C	Sa growth 42C second temp
CN(C(=O)CSc1nc2ccc(NC(=O)c3ccccc3F)cc2s1)c1ccccc1	14.5	103.4	95.0	87.6
CCOC(=O)Cc1ccc(NC(=O)c2ccc(OC)c(OC)c2)cc1	-18.6	106.3	134.3	95.5
COc1ccc2c(C)c(CCC(=O)NCCc3ccc(OC)c(OC)c3)c(=O)oc2c1	-36.9	96.6	86.5	85.0
Cc1noc(C)c1CSc1ccccc1C(=O)N1CCN(C(=O)c2ccco2)CC1	-18.0	·	101.9	89.7
Cc1c(C(=O)NN)oc2ccccc12	1.4	·	107.7	82.0
Cc1cc(C)c(S(=O)(=O)N(C)CC(=O)Nc2ccc3c(c2)OCO3)c(C)c1	-2.3	102.7	112.9	108.2
C#CCn1c(=NC(=O)c2cccs2)sc2ccccc21	-31.4	106.2	76.1	85.3
COc1cc2c(c(OC)c1)C(c1ccncc1)CC(=O)N2 (stereo unspecified)	-19.6	101.7	104.4	90.0
O=C(Nc1ccccc1Br)N1CCC(c2nc(-c3ccccc3)no2)CC1	-36.8	102.0	·	·
Cc1ccc(Nc2ccc(N3CCN(C(=O)c4ccc([N+](=O)[O-])cc4Cl)CC3)nn2)cc1	·	103.4	96.9	82.7
Cc1c(C(=O)Nc2ccc(Br)cc2F)oc2ccc(S(=O)(=O)N3CCCCC3)cc12	·	98.1	107.6	88.9
CSc1cccc(NC(=O)CN(Cc2ccccc2)S(C)(=O)=O)c1	-4.8	97.9	110.4	95.1
COc1ccc(N(C(=O)Nc2ccccc2N)C(C)C2C(C)(C)C2(C)C)cc1 (stereo unspecified)	-9.9	·	92.8	86.1
Cc1ccc(Nc2nn3c(=O)c4ccccc4nc3s2)cc1	2.2	98.9	88.7	85.8
O=c1c(O)c(N2CCN(c3ccccc3F)CC2)c1=O	-24.1	101.1	·	·
COc1cccc(CNC(=O)Cn2nc(C)n3c(cc4cc(C)ccc43)c2=O)c1OC	2.7	104.9	98.6	85.3
COc1ccc(Cl)cc1NC(=O)C(C)n1nnc2sc(-c3ccccc3)cc2c1=O (stereo unspecified)	-10.3	104.1	·	·
O=C(O)C1CCCN1C(=O)Nc1ccccc1F (stereo unspecified)	12.3	101.2	·	·
CCc1ccc2[nH]c(=O)c(CN(Cc3ccco3)C(=O)c3ccccc3)cc2c1	8.2	104.4	104.8	110.7
CC(CC(=O)NC1CCCC1)c1ccccc1 (stereo unspecified)	1.7	98.8	83.5	90.0
CCCCCCSc1s[nH]c(=O)c1C#N	-12.2	98.8	41.7	37.0
COC(=O)CSc1nc2c(cc1C#N)CCCC2	-4.7	107.3	80.2	87.4
CCOC(=O)c1ccc(NC(=O)c2cn(-c3ccccc3)nc2-c2ccc(Br)cc2)cc1	-53.7	106.5	90.6	82.7
CCOc1cccc2cc(-c3cn4c(n3)sc3cc(C)ccc34)c(=O)oc12	·	108.8	92.8	75.7
COCCOc1ncc(NC(=O)CSCC(=O)O)cc1C(F)(F)F	-35.0	103.5	87.0	89.4
CCc1ccc(NC2=NC(C(=O)NC3CCCCC3)CC(=O)N2)cc1 (stereo unspecified)	-25.2	103.5	85.8	97.2
CCN(Cc1ccccc1)C(=O)CN1C(=O)c2ccccc2C1=O	-21.7	102.4	92.8	89.0
c1ccc(CSc2ncnc3c2cnn3-c2ccccc2)cc1	9.8	100.3	101.8	112.0
CC(C)=C1C(=O)Nc2ccc(S(=O)(=O)N3CCCCC3)cc21	-23.8	104.8	112.2	90.2
CCCC1C2c3ccccc3C(c3ccccc32)C1C(=O)Nc1ccccc1OC (stereo unspecified)	4.5	·	89.3	93.5

Single records, from the list above. Screens in order: HCMV UL50-53 inh, GIV-Gai inh, Sa growth 42C, Sa growth 42C second temp
Listed for `COc1ccc(Cl)cc1NC(=O)C(C)n1nnc2sc(-c3ccccc3)cc2c1=O` (stereo unspecified) : -10.3, 104.1, ·, ·
Listed for `COCCOc1ncc(NC(=O)CSCC(=O)O)cc1C(F)(F)F` : -35.0, 103.5, 87.0, 89.4

New compounds follow:
SMILES	HCMV UL50-53 inh	GIV-Gai inh	Sa growth 42C	Sa growth 42C second temp
CCOC(=O)c1c(C)[nH]c(C(=O)N2CCC(C(C)C(=O)N3CCN(c4ccccc4)CC3)CC2)c1C (stereo unspecified)	-5.9	108.4	·	·
CC(NC(=O)Cn1cccc1C(=O)c1ccccc1)C12CC3CC(CC(C3)C1)C2 (stereo unspecified)	·	99.6	102.6	84.7
O=C(O)C1CCCc2c1[nH]c1ccc(Br)cc21 (stereo unspecified)	-0.5	102.3	73.8	65.0
CC(C)CNC(=O)c1ccc(N2C(=O)CCS2(=O)=O)cc1	-3.2	97.8	·	·
CC(=O)Nc1ccc(C(=O)CSc2nnc3cc(C)c4ccccc4n23)cc1	-24.1	102.8	105.2	85.1
O=C(CCCn1c(=O)c2ccccc2n(Cc2ccc(Cl)cc2)c1=O)NC1CCCC1	5.3	102.5	96.9	94.1
CCN1CCN(CC2CCCCC2)CC1	21.1	103.2	78.3	98.0
Oc1c(C=NCc2ccccc2)sc2ccccc12	·	115.0	113.6	92.4
CC(c1ccccc1)n1c(C2CC2)nc2ccccc21 (stereo unspecified)	11.4	96.9	66.0	73.2
Cc1ccc(N2C(=O)CCC(C(=O)OCc3nnc(-c4ccccc4)o3)C2c2cccs2)cc1 (stereo unspecified)	-17.2	·	112.4	89.0
O=C(CCC(=O)N1CCc2cc(S(=O)(=O)N3CCc4ccccc43)ccc21)N1CCCC1	-15.0	99.8	·	·
C/C(=N\NC(N)=O)c1csc2ccccc12	-16.0	103.7	99.9	90.5
COCCCNC(=O)c1cc2c(=O)n3cccc(C)c3nc2s1	-70.6	109.9	100.0	99.3
COc1ccc(NC(=O)c2c(C)oc3ccc(O)c(CN4CCN(Cc5ccccc5)CC4)c23)cc1Cl	-1.7	102.6	106.8	70.5
Cc1csc(NC2c3ccccc3C(=O)N2Cc2ccccc2)n1 (stereo unspecified)	·	98.7	98.3	95.2
CC(=O)N1N=C(c2ccc(Br)cc2)CC1c1nc2ccccc2[nH]1 (stereo unspecified)	-0.2	102.0	·	·
COc1ccc(NC(=O)CSc2nc3nc(C)c(Cc4ccccc4Cl)c(C)n3n2)cc1OC	·	101.5	122.4	86.2
CCN(CC)S(=O)(=O)c1nnc(NC(=O)c2ccc(C(C)C)cc2)s1	-5.1	100.8	104.8	58.7
OCC(CO)(CO)NCc1ccc(Cl)cc1Cl	-3.4	·	104.4	92.7
Cc1c(C(=O)O)c(C(=O)O)c2n1CCS2	-9.3	95.7	110.3	80.3
CC1(C)Cc2nc3sc4c(=O)n(CC(=O)NCC5CCCO5)cnc4c3cc2CO1 (stereo unspecified)	-18.5	97.3	·	·
CCCn1c(SC(C)C(=O)O)nc2ccccc21 (stereo unspecified)	-8.8	·	126.1	86.6
Cc1ccc2nc(COC(=O)Cc3ccsc3)cc(=O)n2c1	-60.8	·	96.5	92.7
C(=Nc1ccccc1-n1cccc1)c1cnc(-c2ccccc2)[nH]1	-11.9	103.0	40.7	24.9
COc1cccc2c1OC1=C(C(=O)CC(C)(C)C1)C2CC(=O)c1ccc(F)cc1 (stereo unspecified)	·	98.1	97.8	80.4
CCN1C=CC2=C(C#N)C(N)C(C#N)(C#N)C(c3cccs3)C2C1 (stereo unspecified)	-50.6	65.0*	80.9	84.2
O=C(Nc1ccon1)c1cccc(Cl)c1	3.4	104.3	112.6	105.5
Cc1noc(C)c1COc1ccc(CC(=O)Nc2ccccc2N2CCOCC2)cc1	-16.7	·	87.7	80.7
O=C(Cn1c(SCC(=O)Nc2nccs2)nc2ccccc21)NCc1ccccc1	-19.3	102.2	91.5	84.5
CC(C)(C)S(=O)(=O)/C(C#N)=C/N1CCC(n2cccc2)CC1	6.3	104.6	109.1	91.2
O=C(CN1CCCN(Cc2ccccc2)S1(=O)=O)N1CCCCCC1	-7.8	99.2	101.1	98.6
COc1cc(C2SC[C@H]3C(=O)N(c4ccccc4)C(=O)N23)cc(OC)c1OC (stereo partly specified)	-24.5	99.5	105.9	84.8
CNS(=O)(=O)c1cccc(C(=O)OCC(=O)c2cc(C)n(C)c2C)c1	-31.8	·	111.1	97.4
CCC(Cc1ccccc1)NC(=O)c1cccc(Nc2nc3ccccc3nc2-n2nc(C)cc2C)c1 (stereo unspecified)	1.2	103.3	118.4	96.2
CCOc1ccccc1NC(=O)C(C)Sc1nc2c(c(=O)[nH]1)CCCC2 (stereo unspecified)	-27.8	102.0	92.6	85.1
O=S1(=O)c2cccc3cccc(c23)N1Cc1nc2ccccc2s1	-7.2	·	102.8	90.3
CCOC(=O)c1c(NC(=O)Cc2coc3ccc(CC)cc23)sc2c1CCC2	-14.6	109.5	103.2	89.5
CCN(Cc1ccccc1)c1ccc(/C=N/n2cnnc2)cc1	-37.5	·	97.5	89.3
CC1=NC(C)(C)Cc2ccccc21	-22.1	100.5	111.6	80.2
N#CC1CN(CCc2ccccc2)CN(CCc2ccccc2)C1	-3.5	102.1	99.7	88.3
CC(OC(=O)c1cccnc1SC(C)C(=O)NC1(C#N)CCCCC1)C(=O)NC1(C#N)CCCCC1 (stereo unspecified)	-10.0	·	105.2	101.0
CC(C)(C)c1nnc(NC(=O)CS(=O)(=O)Cc2ccccc2)s1	1.5	102.4	95.6	74.6
CC(C)OC(=O)CN1CCN(C2c3ccccc3-c3ccccc32)CC1	-7.8	104.4	125.8	85.8
CC(C)CN(CC(C)C)S(=O)(=O)N1CCC(C(=O)NCc2cccs2)CC1	·	101.4	113.2	84.2
O=C(Cc1ccccc1)Nc1ccc(NC(=O)c2cccs2)cc1	·	101.9	88.1	95.7
Cc1nnsc1-c1onc(C)c1C(=O)O/N=C/c1ccc(Cl)cc1	-29.9	101.5	96.9	94.2
COc1ccc(Br)cc1-c1nc(Cn2nc(C)c3c(C)onc3c2=O)c(C)o1	-26.4	109.5	·	·
O=c1c2ccccc2n2c(=O)n(Cc3ccccc3F)nc2n1CCc1ccccc1	-27.5	99.3	·	·
O=C(c1cnn(C(=O)CN2c3cccc4cccc(c34)S2(=O)=O)c1)c1ccccc1O	-29.1	·	95.2	96.5
CCC(C)C(NCc1cccc(C)c1)C(=O)O (stereo unspecified)	-22.0	96.9	102.0	92.8
CCCCOc1ccccc1NC(=O)Cn1c(-c2cncs2)nc2ccccc21	-4.9	104.9	84.8	91.8
CCn1cc(C(=O)NCCc2ccc(C)cc2)c(=O)c2cc(S(=O)(=O)N(C)C)ccc21	-12.0	98.6	98.0	98.2
Cn1cccc1Cc1nnc(SCC(=O)N2CCCc3ccccc32)n1-c1ccc(F)cc1	·	99.5	101.6	92.4
COC(=O)c1c(C)cc(O)c(C)c1O	-8.0	104.8	109.6	64.4

In the list so far, these contain an aryl thioether with sulfur outside any ring.
SMILES	HCMV UL50-53 inh	GIV-Gai inh	Sa growth 42C	Sa growth 42C second temp
CN(C(=O)CSc1nc2ccc(NC(=O)c3ccccc3F)cc2s1)c1ccccc1	14.5	103.4	95.0	87.6
Cc1noc(C)c1CSc1ccccc1C(=O)N1CCN(C(=O)c2ccco2)CC1	-18.0	·	101.9	89.7
CSc1cccc(NC(=O)CN(Cc2ccccc2)S(C)(=O)=O)c1	-4.8	97.9	110.4	95.1
CCCCCCSc1s[nH]c(=O)c1C#N	-12.2	98.8	41.7	37.0
COC(=O)CSc1nc2c(cc1C#N)CCCC2	-4.7	107.3	80.2	87.4
c1ccc(CSc2ncnc3c2cnn3-c2ccccc2)cc1	9.8	100.3	101.8	112.0
CC(=O)Nc1ccc(C(=O)CSc2nnc3cc(C)c4ccccc4n23)cc1	-24.1	102.8	105.2	85.1
COc1ccc(NC(=O)CSc2nc3nc(C)c(Cc4ccccc4Cl)c(C)n3n2)cc1OC	·	101.5	122.4	86.2
CCCn1c(SC(C)C(=O)O)nc2ccccc21 (stereo unspecified)	-8.8	·	126.1	86.6
O=C(Cn1c(SCC(=O)Nc2nccs2)nc2ccccc21)NCc1ccccc1	-19.3	102.2	91.5	84.5
CCOc1ccccc1NC(=O)C(C)Sc1nc2c(c(=O)[nH]1)CCCC2 (stereo unspecified)	-27.8	102.0	92.6	85.1
CC(OC(=O)c1cccnc1SC(C)C(=O)NC1(C#N)CCCCC1)C(=O)NC1(C#N)CCCCC1 (stereo unspecified)	-10.0	·	105.2	101.0
Cn1cccc1Cc1nnc(SCC(=O)N2CCCc3ccccc32)n1-c1ccc(F)cc1	·	99.5	101.6	92.4
